RanGTP-Impb inh: inhibitors of RanGTP-importin-beta interaction, primary screen, biochemical, FRET, CFP-Ran, YFP-importin-beta, homogeneous; Ran GTPase (GTP-bound) - importin-beta complex; cell-free CFP-Ran/YFP-importin-beta FRET ratio; inhibition, % (no concentration beside the values); 1.1% of 300,000 active; AID 2216, 2009;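 active = most replicates above 15%; inconclusive = exactly half above 15%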;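 also: 0% = DMSO wells and 100% = Ran loaded with GDP instead of GTP; wells of about 40 µL received 100 nL stock; the first replicate is given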
Beta apoptosis: inhibitors of cytokine-induced beta cell apoptosis, primary screen, luminescence | 0.8% of 300,000 active | protection from apoptosis, % (concentration not given with the values) | INS-1E cytokine-induced death, ATP luminescence, 48 h; percent of positive-control rescue, neutral wells zero | AID 435005, 2010;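 active = all replicates at 75% or more, or half of them and the mean; inconclusive = half reach 75% but not the mean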;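 also: 0% = cytokine-treated negative control wells and 100% = positive control rescue; higher means more ATP so stronger rescue from cytokine killing; wells of about 40 µL received 100 nL stock; the first replicate is given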
Ecoli rRNA inh: reduced GFP signal of wild-type E. coli, primary screen, bacterial rRNA inhibitor project, GFP/RFP fluorescence, OD600, single point. E. coli WT GFP vs humanized-ribosome RFP mutants, 24 h; active compounds read low; DMSO median 0, no signal -100. GFP signal change (wild-type ribosome), % (test concentration not listed). 1.6% of 350,000 active. AID 720706, 2013;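 active = significant combined selectivity score with lowered wild-type GFP, culture density cut under 30%, mutant RFP and density less affected; inactive = any of these conditions unmet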; also: one replicate is shown; some compounds called inactive have numbers as strong as hits
T cruzi inh: inhibitors of intracellular T. cruzi growth, primary screen, luminescence, NIH3T3 host cells; T. cruzi beta-gal in NIH3T3, 90 h; inhibition, % (test concentration not listed); 1.4% of 300,000 active; AID 1885, 2009;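 active = mean inhibition across valid replicates above about 55%, limit read from the data; inconclusive = mean below that limit but half or more replicates reach it; inactive = mean below it, under half of replicates reach it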;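 also: signal also drops with host cell toxicity which is not excluded here; 0% = plate median of DMSO wells and 100% = zero luminescence signal; higher percent means less beta-gal luminescence so fewer parasites; stock transfer was 50 nL into about 50 µL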
FGF22 binding: binders of human FGF22 protein, primary screen, FGF22 synaptogenesis inhibitor project, biophysical, thermal shift, single point; calls only at 9.99 µM; 1.5% of 340,000 active; recombinant FGF22 thermal shift, SYPRO orange fluorescence; percent of sucrose octasulfate shift, DMSO zero; Fibroblast growth factor 22 (Homo sapiens), Q9HCT0;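 active = melting point raised past a set limit in the mean and every replicate; inconclusive = no clear call; three in four hits are not shown here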
Target sequence (Q9HCT0 whole entry, looked up): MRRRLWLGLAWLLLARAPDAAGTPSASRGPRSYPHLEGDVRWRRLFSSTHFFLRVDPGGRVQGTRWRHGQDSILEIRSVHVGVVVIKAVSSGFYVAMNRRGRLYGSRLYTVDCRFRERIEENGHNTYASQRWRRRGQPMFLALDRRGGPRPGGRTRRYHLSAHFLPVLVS
Calb FLC: C. albicans growth inhibition with fluconazole, primary screen, CaCi-2 strain, Alamar Blue fluorescence. C. albicans CaCi-2 (fluconazole-resistant clinical isolate) + fluconazole, 48 h. 0.57% of 300,000 active. growth inhibition, % (concentration not given with the values);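 active = most replicates above 75%; inconclusive = exactly half above 75%; inactive = most below 75%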;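 also: all wells also contain fluconazole at 8 µg/ml as a sub-toxic cotreatment; 0% = median of DMSO wells and 100% = median of geldanamycin control wells; wells of about 8 µL received 7.5 nL stock; the first replicate is given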
MLL AF4-AF9 inh: inhibitors of AF4 peptide binding to AF9, primary screen, biochemical, AlphaScreen, biotin-AF4 peptide, FLAG-AF9, single point; inhibition, % at 10 µM; 0.47% of 350,000 active; Protein AF-9 (Homo sapiens), P42568; AID 651704, 2012;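 active = every replicate reaching a set inhibition limit, whatever the replicate mean, cut at about 25% in these data; inconclusive = mean inhibition reaches that limit but some replicates miss it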;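 also: 0% = plate neutral control median and 100% = total signal loss; the record names both 10 and 1 µM as test concentration; the first replicate is given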
Target sequence (P42568 whole entry, looked up): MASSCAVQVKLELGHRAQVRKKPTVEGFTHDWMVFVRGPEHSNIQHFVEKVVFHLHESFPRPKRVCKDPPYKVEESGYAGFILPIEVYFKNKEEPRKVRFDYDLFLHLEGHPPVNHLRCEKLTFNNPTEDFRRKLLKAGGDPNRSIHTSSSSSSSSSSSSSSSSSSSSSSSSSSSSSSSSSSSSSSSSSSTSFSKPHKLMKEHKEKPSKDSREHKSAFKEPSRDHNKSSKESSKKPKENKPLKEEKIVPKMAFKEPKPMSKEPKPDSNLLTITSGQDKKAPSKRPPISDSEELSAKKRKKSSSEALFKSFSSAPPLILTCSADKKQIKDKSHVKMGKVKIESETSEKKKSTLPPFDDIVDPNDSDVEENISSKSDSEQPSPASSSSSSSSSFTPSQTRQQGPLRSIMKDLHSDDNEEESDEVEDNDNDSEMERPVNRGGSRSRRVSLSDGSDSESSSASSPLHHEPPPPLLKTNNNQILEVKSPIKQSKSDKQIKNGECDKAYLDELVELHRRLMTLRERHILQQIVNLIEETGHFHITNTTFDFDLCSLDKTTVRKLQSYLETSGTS
ALR H2O2 inh: inhibitors of human ALR sulfhydryl oxidase, primary screen, biochemical, H2O2 detection, HRP-luminol luminescence, single point; inhibition, % (no concentration beside the values); purified ALR, DTT oxidation; 3.8% of 290,000 active;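 active = mean and each replicate at 75% or more; inconclusive = only one of the two met; inactive = neither met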;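 also: stock transfer was 7.5 nL into about 7.5 µL; 0% = neutral wells and 100% = wells with inactivated enzyme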
Target sequence (P55789 whole entry, looked up): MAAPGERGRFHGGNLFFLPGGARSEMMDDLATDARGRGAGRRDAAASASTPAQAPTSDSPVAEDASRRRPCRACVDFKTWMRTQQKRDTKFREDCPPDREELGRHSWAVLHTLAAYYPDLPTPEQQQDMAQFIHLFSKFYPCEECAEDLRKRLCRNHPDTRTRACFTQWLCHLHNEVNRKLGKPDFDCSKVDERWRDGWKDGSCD
Ecoli rRNA inh OD600: second read-out of Ecoli rRNA inh, no call of its own (marks repeat the call); OD600 change, %; measured here: OD600 growth;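 optical density of the mix in the first replicate; 0 = DMSO median and -100 = no signal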
Ecoli rRNA inh RFP: further read-out of Ecoli rRNA inh, marked with its call; RFP signal change, %; measured here: RFP humanized mutant strains;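 first replicate; 0 = DMSO median and -100 = no signal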
* = called active by the depositor; i = inactive; u = inconclusive; x = not tested or not shown. Some of the compounds tested; the hit share may differ from the screen's.

SMILES | RanGTP-Impb inh | Beta apoptosis | Ecoli rRNA inh | Ecoli rRNA inh OD600 | Ecoli rRNA inh RFP | T cruzi inh | FGF22 binding | Calb FLC | MLL AF4-AF9 inh | ALR H2O2 inh
CC1(c2nnc(Cc3ccccc3)o2)CC(c2ccccc2[N+](=O)[O-])=NO1 (stereo not drawn) | -2.4 | -11 | x | x | x | 10 | x | 8 | x | -4
Cc1cnc(CN(C)C(=O)CC2C(=O)NCCN2Cc2cccc(F)c2F)[nH]1 (stereo not drawn) | -1.4 | 0 | 2 | 9 | -1.1 | -12 | i | 4 | 0.9 | 0
CN(C)C(=S)Nc1ccc(Cc2ccncc2)cc1 | 4.6 | 3 | 0 | 4 | 0.7 | -7 | i | 12 | -1.2 | -12
COc1cccc(CNC(=O)COC(=O)CCCNC(=O)c2ccc(Cl)cc2)c1 | x | -7 | 0 | 1 | 2.2 | 2 | x | 2 | -0.8 | 0
CCn1cc(C(=O)NCC(OC)OC)c(=O)c2cc(S(=O)(=O)N3CCC(C)CC3)ccc21 | 0.4 | 4 | 0 | 0 | 2.3 | 10 | i | -2 | 0.4 | -2
CCN1C(=O)C(CC(=O)Nc2ccc(F)cc2)N(Cc2cccs2)C1=S (stereo not drawn) | -0.1 | -7 | -13 | -13 | -3.8 | 20 | i | 6 | -1.2 | -18
Cc1cccc(NC(=O)c2cc(S(=O)(=O)N(C)c3ccc(F)cc3)ccc2Cl)n1 | 20* | -2 | -12 | -24 | -3.1 | 32 | i | -6 | 2.4 | -10
O=C(O)COc1ccccc1/C=N/NC(=O)C(O)c1ccccc1 (stereo not drawn) | 7.0 | -2 | 26 | 14 | 1.8 | 12 | i | -1 | -0.4 | -13
CN(C)CCCN(C(=O)CCc1ccccc1)c1nc2c(F)cccc2s1 | u | -1 | x | x | x | 58* | x | -24 | x | 0
CC(C)CN1CCN(Cc2cc(F)ccc2-n2cccn2)CC1CCO (stereo not drawn) | 4.6 | -2 | 11 | 8 | -0.2 | -19 | i | -9 | 0.8 | -5
Cn1c(=O)c2cc(S(=O)(=O)NCCC(=O)NCC3CCCO3)ccc2n(C)c1=O (stereo not drawn) | -3.4 | 3 | x | x | x | -20 | x | -1 | x | -5
C=CCc1cccc2cc(C(=O)NCCOC)c(=O)oc12 | 5.3 | -1 | -6 | -8 | -4.2 | -20 | i | -3 | 6.9 | x
Cc1ccc2[nH]cc(S(=O)(=O)c3ccc(C)c(C)c3)c(=O)c2c1 | -2.4 | -5 | 0 | -1 | -0.6 | -1 | i | -5 | -1.5 | -3
O=C(CSc1ccc(-c2ccccn2)nn1)N1CCCc2ccccc21 | 3.3 | -6 | -38 | -36 | -4.9 | 5 | i | -4 | -3.6 | -23
Cc1ccc(S(=O)(=O)NNC(=O)c2cccnc2)cc1 | x | -4 | 32 | 13 | 4.8 | -2 | i | u | -0.1 | 39
Cc1ccsc1C1Nc2ccc3ncccc3c2C2=C1C(=O)CCC2 (stereo not drawn) | 6.4 | -2 | -4 | -8 | 12 | 28 | x | 5 | x | -25
O=C(COC(=O)CSc1ccc(F)cc1)NCCCc1ccccc1 | 2.1 | -4 | 9 | 13 | 3.5 | -6 | i | -7 | -14 | 1
Cc1ccc(NCc2nnc(SCC(=O)N3CCCc4ccccc43)o2)c(C)c1 | -3.0 | -5 | x | x | x | 22 | x | 0 | x | 71
O=c1[nH]c2cc3c(cc2cc1CN(CC1CCCO1)S(=O)(=O)c1ccccc1)OCCO3 (stereo not drawn) | 1.8 | 2 | x | x | x | -1 | x | -2 | x | -9
C=CCn1c(SCC(=O)Nc2ccc(N3CCOCC3)cc2)nnc1-c1ccncc1 | 6.9 | -1 | -11 | 11 | 6.5 | -3 | i | 2 | -1.8 | 66
O=C(NCC(=O)N1CCCC1)c1ccc(Cl)cc1 | -4.8 | -5 | 10 | 16 | 0.3 | -12 | i | -1 | -8.0 | -3
CCOC(=O)C1C(=O)NC(N2CCCCC2)=NC1c1ccccc1 (stereo not drawn) | u | -3 | x | x | x | -22 | x | -3 | x | -8
Cc1c(NC(=O)CN2C(=O)C(=O)c3ccccc32)c(=O)n(-c2ccccc2)n1C | 7.8 | -11 | 6 | 0 | 0.3 | -10 | i | -9 | -5.9 | 16
O=C(OCc1nc2ccccc2[n+]([O-])c1C(=O)c1ccccc1)c1ccco1 | 4.8 | x | 0 | -6 | -0.7 | -7 | i | 0 | 8.0 | -2
C(=N\Nc1nc(-c2ccccc2)cs1)/c1cccnc1 | 1.4 | 0 | x | x | x | 20 | x | -18 | x | 28
(list continues)
SMILES | RanGTP-Impb inh | Beta apoptosis | Ecoli rRNA inh | Ecoli rRNA inh OD600 | Ecoli rRNA inh RFP | T cruzi inh | FGF22 binding | Calb FLC | MLL AF4-AF9 inh | ALR H2O2 inh
CCOc1ccc(NC(=O)c2ccccc2OC)cc1 | -1.2 | 2 | x | x | x | 6 | x | 17 | x | -15
CCCOC(=O)Nc1cc(OC)ccc1[N+](=O)[O-] | -0.8 | -3 | 17 | 10 | 5.1 | -13 | i | 39 | 5.9 | 2
Cc1ccc(NC(=O)C2CCN(S(=O)(=O)c3c(C)n[nH]c3C)CC2)nc1 | 0.8 | 3 | x | x | x | -4 | x | -8 | x | x
CN(Cc1ccc(F)cc1)C(=O)c1ccc2c(c1)NC(=O)CS2 | 4.7 | -3 | -8 | -5 | 0.6 | 8 | i | -30 | 0.0 | -9
O=C(CSc1ccccn1)N1CCOCC1 | -1.4 | -4 | x | x | x | -12 | x | 2 | x | -7
CC(C)[C@H](NS(=O)(=O)c1ccccc1)C(=O)OCC(=O)NC(=O)NC1CCCCC1 | x | -3 | -8 | -8 | 11 | x | i | x | 5.0 | -14
COc1ccccc1Oc1ccc(-c2cnc3ccccc3n2)cc1[N+](=O)[O-] | -1.4 | 7 | 0 | -6 | -1.4 | -17 | i | -8 | 14 | 8
O=C1NC(=O)N(Cc2ccccc2F)C1=O | -1.5 | -2 | 9 | 6 | -0.8 | -24 | i | 7 | 1.0 | -1
CC(C)(C)OC(=O)N1CCC[C@H]1C(=O)OCC(=O)Nc1cc(S(C)(=O)=O)ccc1Cl | x | -1 | 0 | -1 | -2.5 | x | i | x | -0.6 | x
CC1CC(C(F)(F)F)n2ncnc2N1 (stereo not drawn) | 0.2 | -3 | x | x | x | -10 | x | -6 | x | -7
COc1ccc(Cl)cc1NC(=O)c1noc(C)c1[N+](=O)[O-] | -0.4 | -5 | 1 | -15 | -2.1 | -14 | x | -5 | x | -1
O=C(CSc1nnc(-c2ccncc2)o1)Nc1ccccc1C(F)(F)F | 2.0 | -4 | 10 | -1 | -1.3 | -11 | i | 6 | -0.6 | 1
COc1cc2ccccc2cc1C(=O)NC(=S)Nc1cc(C(=O)O)ccc1C | -1.2 | x | -7 | -2 | 1.4 | 15 | i | 59 | 0.6 | x
Cc1cc(Cl)c(S(=O)(=O)N2CC(C)OC(C)C2)cc1OCC(N)=O (stereo not drawn) | -0.3 | -7 | x | x | x | -11 | x | -1 | x | 0
Cc1[nH]nc(-c2ccc(OCc3cnn(-c4ccccc4)c3)cc2O)c1Oc1ccc(Cl)cc1 | -2.5 | 26 | x | x | x | 58* | x | u | x | x
O=C(O)CCCC(=O)Nc1ccccc1C(=O)N1CCCC1 | 5.3 | -1 | x | x | x | 5 | x | -3 | x | -5
Cn1nnnc1SCCNCc1ccncc1 | 4.3 | -5 | x | x | x | -7 | x | -3 | x | 0
COc1ccc(CCn2c(C3CCCCC3)nc3c(c(=O)c4ccccc4n3C)c2=O)cc1 | 1.8 | x | 2 | -2 | 2.0 | u | i | 45 | 0.3 | -3
Cc1cc(O)ccc1N1C(=O)c2cccc3cc([N+](=O)[O-])cc(c23)C1=O | -4.2 | 0 | 25 | 12 | 0.3 | 67* | x | 4 | -1.4 | -7
CCN(CC(=O)N1CCCC1)S(=O)(=O)c1cc(C)ccc1OC | -0.6 | -3 | 10 | 6 | -1.8 | -7 | i | -7 | 0.5 | -12
COc1ccc(C(=O)NCc2ccco2)cc1S(=O)(=O)N1CCOCC1 | 0.4 | -2 | -7 | -4 | 0.9 | 2 | i | -12 | 2.2 | x
CC(C)(C)NC(=O)NC(=O)CSc1nncs1 | 3.5 | -2 | 14 | 12 | 1.6 | 2 | i | -4 | -0.3 | 1
Clc1ccc(-n2nnc(-c3ncc[nH]3)n2)cc1Cl | 2.5 | 3 | 2 | 2 | 2.1 | -17 | i | -22 | x | -1
CCCn1c(Nc2nc3ccccc3n2C)nc2ccccc21 | 0.3 | 111* | x | x | x | 52 | x | 102* | x | 34
COC(=O)CCCC1=CC2=CC(=O)C(C)(OC(=O)c3cccs3)C(=O)C2=CN1C1CCCCC1 (stereo not drawn) | -2.2 | -4 | 18 | 29 | 7.7 | u | i | 35 | 9.6 | -19
Other entries:
SMILES | RanGTP-Impb inh | Beta apoptosis | Ecoli rRNA inh | Ecoli rRNA inh OD600 | Ecoli rRNA inh RFP | T cruzi inh | FGF22 binding | Calb FLC | MLL AF4-AF9 inh | ALR H2O2 inh
COc1ccc(-c2csc(-n3ncc(-c4cccs4)c3N)n2)cc1 | -3.3 | -2 | x | x | x | -8 | x | -14 | x | 4
O=C(CN1CCOCC1)Nc1ccc(NC(=O)c2ccccc2F)cc1 | -1.2 | 1 | 7 | 9 | 0.5 | -2 | i | -6 | -3.1 | -3
O=C(CSCc1ccccc1Br)NNC(=S)NCc1ccco1 | -0.6 | -4 | -31 | -56 | -13 | -15 | i | 3 | 0.0 | -8
Cc1ccsc1/C=N/NC(=O)CSCc1ccc(Cl)cc1 | 7.0 | 2 | x | x | x | 4 | x | 8 | x | -19
COC(=O)CSc1nc(NCC(C)C)nc(N2CCOCC2)n1 | 2.2 | -3 | 0 | 3 | -2.2 | 8 | i | 2 | 1.2 | 3
O=C(CCC(=O)OCC(=O)c1cccc([N+](=O)[O-])c1)Nc1cccc(Cl)c1Cl | -2.1 | x | x | x | x | -11 | x | 0 | x | -10
CC(=O)Nc1cccc(-c2cn3ccccc3n2)c1 | -0.4 | 0 | 3 | 11 | 0.4 | -18 | i | 24 | -0.6 | 0
CC(=O)N1CCN(CC(C)(C)NS(=O)(=O)c2ccc(C)cc2)CC1 | -0.3 | -3 | 5 | 10 | -1.1 | 12 | i | 0 | 0.0 | -4
CCOc1ccc(NCc2cccn2-c2nnc(N3CCC(C(=O)NCCCN4CCCCC4C)CC3)s2)cc1 (stereo not drawn) | 0.1 | 0 | 0 | 0 | 3.6 | 35 | i | -7 | 47* | 99*
COC(=O)c1ccc(NC(=O)CN2CCOCC2)cc1 | -4.2 | 2 | x | x | x | -2 | x | -3 | x | -13

Bioassay records (PubChem)
